Mtb H37Rv – M. tuberculosis H37Rv growth inhibitors, H37Rv strain (AID 1626) | actives 0.95% (n = 220,000) | inhibition, % at 10 µM; hits with a dose series show IC50 in µM | M. tuberculosis H37Rv growth inhibition; higher % means a stronger effect;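 active means confirmed in a dose series; inconclusive means inhibition above 80% but not taken into the dose series; inactive means below 80% or under 30% at every dose of the series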;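 further: bacteria incubated seven days before Alamar blue readout; 0% = bacteria only wells and 100% = bacteria with antibiotic wells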
Mtb betalactam – beta-lactam sensitization of Mtb H37Rv; M. tuberculosis H37Rv growth with meropenem, percent inhibition; hits of this screen are not shown here; inhibition, % at 25 µM; actives 0.27% (n = 330,000); AID 434955;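 active means about 74% or more and at least 40 points above the plate without the antibiotic, then above 30% in a dose series; inconclusive means first-round hits that could not be retested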;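 further: growth measured after seven days incubation then overnight dye step; 0% = bacteria only wells and 100% = bacteria with antibiotic; twin plates without the antibiotic show which effects depend on it; some results filed as inactive read as strong as hits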
RecA intein inh – blocks M. tuberculosis RecA intein splicing; AID 2221; actives 0.75% (n = 290,000); cell-free RecA intein splicing, fluorescence; P9WHJ3; inhibition, %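 (about 9 µM by stock and volumes)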; in the data active means inhibition above about 30%; inconclusive means no clear call, values can overlap the other calls;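 further: 0% = vehicle wells and 100% = reference inhibitor control wells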
Target sequence (P9WHJ3 whole entry, looked up): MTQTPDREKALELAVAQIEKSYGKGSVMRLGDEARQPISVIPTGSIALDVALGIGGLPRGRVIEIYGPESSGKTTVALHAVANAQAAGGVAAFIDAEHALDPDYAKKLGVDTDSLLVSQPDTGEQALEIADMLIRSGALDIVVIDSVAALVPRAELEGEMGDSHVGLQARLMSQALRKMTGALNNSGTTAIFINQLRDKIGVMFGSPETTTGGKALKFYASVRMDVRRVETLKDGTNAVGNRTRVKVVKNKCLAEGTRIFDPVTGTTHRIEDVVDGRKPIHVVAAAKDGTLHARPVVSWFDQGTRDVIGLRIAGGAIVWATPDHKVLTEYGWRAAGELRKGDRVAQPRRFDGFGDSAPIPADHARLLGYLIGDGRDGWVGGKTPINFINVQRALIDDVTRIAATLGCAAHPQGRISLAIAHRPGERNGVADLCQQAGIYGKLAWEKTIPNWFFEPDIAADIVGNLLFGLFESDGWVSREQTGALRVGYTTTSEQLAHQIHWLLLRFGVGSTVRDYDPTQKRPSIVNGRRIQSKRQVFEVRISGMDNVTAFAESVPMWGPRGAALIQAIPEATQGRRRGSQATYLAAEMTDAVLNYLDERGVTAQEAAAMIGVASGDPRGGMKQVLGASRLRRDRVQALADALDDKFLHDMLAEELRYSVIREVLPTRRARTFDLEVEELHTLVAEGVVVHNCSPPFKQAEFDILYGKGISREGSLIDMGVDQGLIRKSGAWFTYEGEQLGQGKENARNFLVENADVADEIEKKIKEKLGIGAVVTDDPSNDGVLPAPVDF
Arbovirus inh – antivirals against arbovirus infection. arbovirus infection cell-based antiviral screen. inhibition, % at 10 µM. actives 0.37% (n = 200,000);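 active means inhibition from about 30%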;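 further: bluetongue infection of BSR cells; cell survival read as ATP light after 72 h; 0% = infected wells without compound and 100% = uninfected wells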
YopH inh – inhibitors of Yersinia enterocolitica YopH tyrosine phosphatase; AID 898; actives 0.16% (n = 140,000); fluorescence Ex485/Em525; inhibition, %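 (about 10 µM by stock and volumes)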;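 active means inhibition of 50% or more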;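 further: controls were vehicle for no effect and minimum signal wells for full effect; inactives centre near -20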
Arbovirus inh repeat – further read-out of Arbovirus inh, marked with its call; inhibition, %; measured here: 10K subset replicate screen; many hits read low in the repeat;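 first of two repeat runs on a subset; 0% = infected and 100% = uninfected wells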
* hit, by the source's call; i = inactive; u = inconclusive; x = no result given. A portion of the library; the hit share may differ from the screen's.

A first look:
SMILES	Mtb H37Rv	Mtb betalactam	RecA intein inh	Arbovirus inh	YopH inh	others
CCOC(=O)c1c(-n2cnnn2)sc2c1CCCC2	-1%	0	1.9	x	x
Cc1ccc(C(=O)NN2C(=O)CSC2=S)cc1	-7%	0	-2.5	10	-14
CC(NC(=O)C(=O)NN=C1CCCC1)c1ccccc1 (stereo not given)	-5%	1	-3.0	4	x
Cc1ccc2cc(NC(=O)c3ccc(C(C)(C)C)cc3)ccc2n1	x	9	2.8	x	x
Nc1cc2sc(-c3ccc(C(=O)O)cc3)nc2cc1Cl	-3%	3	i	-3	-33

The list itself (from the top)
SMILES	Mtb H37Rv	Mtb betalactam	RecA intein inh	Arbovirus inh	YopH inh	others
CCOC(=O)c1c(-n2cnnn2)sc2c1CCCC2	-1%	0	1.9	x	x
Cc1ccc(C(=O)NN2C(=O)CSC2=S)cc1	-7%	0	-2.5	10	-14
CC(NC(=O)C(=O)NN=C1CCCC1)c1ccccc1 (stereo not given)	-5%	1	-3.0	4	x
Cc1ccc2cc(NC(=O)c3ccc(C(C)(C)C)cc3)ccc2n1	x	9	2.8	x	x
Nc1cc2sc(-c3ccc(C(=O)O)cc3)nc2cc1Cl	-3%	3	i	-3	-33
CCn1ncc(Br)c1C(=O)Nc1nccs1	-8%	-4	-0.7	-1	-17
O=c1[nH]c(/C=C/c2ccc(OC(F)F)cc2)nc2c1cnn2-c1ccccc1	8%	1	-11	-5	x
O=C(COC(=O)c1ccc[nH]c1=O)NC1CCCc2ccccc21 (stereo not given)	2%	-2	0.3	x	x
Cc1cc[n+](CC(=O)Nc2cc(C(F)(F)F)ccc2Cl)cc1	-2%	-9	2.7	-1	-2
Cc1ccc(CNc2ccc(S(=O)(=O)N3CCOCC3)cc2[N+](=O)[O-])cc1	-9%	5	3.4	6	-26
Cc1nc2c(Br)c3nc(C(F)(F)F)[nH]c3c(Br)c2[nH]1	-5%	-5	4.4	5	-14
Cc1c(C(=O)Nc2nnc(SCc3ccccc3Cl)s2)cccc1[N+](=O)[O-]	5%	u	1.5	-4	-25
CN(C)/C=C/C(=O)/C=C/c1ccc(Cl)cc1	-1%	5	2.7	-2	x
Cc1ccc(NC(=O)NCC(c2ccccc2)N(C)C)cc1 (stereo not given)	x	-3	-0.8	x	x
O=C(CSc1nc2ccc(NC(=O)CSc3nnnn3-c3ccccc3)cc2s1)Nc1ccccc1	3%	-3	0.3	-23	-5
C=CCn1c(O)c(C(C)=NCCO)c(=O)[nH]c1=O	-15%	-3	-4.8	8	-21
CCOC(=O)c1cnn(Cc2ccccc2)c1N	3%	-3	0.3	-10	-26
O=C(NCCC1CCCCN1S(=O)(=O)c1ccc(Cl)cc1)C(=O)NCc1cccnc1 (stereo not given)	x	-10	0.4	x	x
O=C(CSc1ncccn1)N/N=C/c1cccc([N+](=O)[O-])c1	16%	5	-0.4	-7	-17
COc1ccc(N=Cc2c(O)c3ccccc3oc2=O)cc1	>100µM*	94	-3.0	-16	-21
COc1ccc(C)cc1NC(=O)Nn1cnnc1	-3%	-7	0.0	1	-2
O=C(NCCc1ccccc1)c1ccc(CS(=O)Cc2cccc(Cl)c2)o1 (stereo not given)	x	1	-1.0	x	x
COc1ccccc1NC(=O)COc1ccc(C(=O)OCC(=O)NC(C)(C)C)cc1OC	9%	9	-0.9	4	x
O=C(NCCc1ccccc1)C1CC1	x	-9	1.8	x	x
Cc1oc(C(C)(C)C)cc1C(=O)NC1CCN(Cc2ccccc2)CC1	-18%	-11	x	x	x
Cc1cnc(C(=O)OCC(=O)c2ccc(-c3ccccc3)cc2)cn1	x	-12	-2.3	x	x
CN(C)c1nc(SCC(=O)Nc2ccccc2)nc(N2CCOCC2)n1	4%	11	0.6	13	x
Nc1ccccc1C(=O)NCCCN1CCOCC1	x	2	-1.4	x	x
Fc1ccc(-c2[nH]ncc2CN2CCN(c3ccc(F)cc3)CC2)cc1	-8%	1	1.2	x	x
Cc1ccc(NC2=Nc3ccccc3CS2)cc1	-3%	-9	0.9	-4	11
OC(c1ccccc1)c1nccn1Cc1ccccc1 (stereo not given)	-17%	-2	-1.0	12	-24
Oc1ccccc1CNc1ccc(OC(F)(F)F)cc1	12%	1	-0.4	17	x
O=C(Cc1cccc2ccccc12)N1CC[C@@]2(O)CCCC[C@H]2C1	0%	4	-0.1	x	x
COC(=O)c1cc(S(=O)(=O)NCC2CCN(Cc3ccccc3F)CC2)c[nH]1	x	9	-0.5	x	x
Cc1cccn2c(=O)c(/C=C(\C#N)C(=O)NC3CCS(=O)(=O)C3)c(Oc3ccc(F)cc3)nc12 (stereo not given)	x	7	-0.9	x	x
O=C(O)c1cccc(Cn2cc(Br)cn2)c1	x	-1	-1.4	5	-25
CC1=NNC(=O)C1CC(=O)N/N=C(\C)c1ccco1 (stereo not given)	-5%	-2	0.8	0	x
COc1cc(C(=O)NC(=S)NCc2ccco2)cc(OC)c1OC	-4%	-12	0.7	-1	-21
O=C(NNC(=S)Nc1ccccc1)c1ccc(O)cc1	4%	-4	-0.6	x	x
O=C(Nc1ccc2c(c1)OCCO2)C1CCN(S(=O)(=O)Cc2ccccc2)CC1	0%	-8	0.7	5	-8
C=CCC1(Cl)C(=O)C(Cl)=C(N2CCOCC2)C1(OC)OC (stereo not given)	-10%	-14	-1.0	x	x
Cn1c(CNC(=O)c2ccc(Cl)c(Cl)c2)nnc1SCC(=O)Nc1sc2c(c1C#N)CCCC2	-6%	4	1.4	-15	-20
OCCN1CCN(c2nc(-c3ccccc3O)nc3ccccc23)CC1	x	5	-0.3	x	x
N#Cc1ccc(CN2C=NS(=O)(=O)c3ccccc32)cc1	x	0	-0.8	x	x
FCCCOc1ccc(-c2nccc(-c3ccc(F)cc3)n2)cc1	-2%	89	2.3	21	-30
C/C(=N\NC(=O)c1ccncc1)c1c(O)n(Cc2ccccc2)c(=O)[nH]c1=O	u	98	-0.5	x	x
O=C1c2ccccc2C(=O)N1CCCOCc1c[nH]c(=O)[nH]c1=O	-9%	-3	-3.2	0	-4
CN1C(=O)NC(NC(=O)c2cccs2)(C(F)(F)F)C1=O (stereo not given)	-5%	1	-4.2	6	-22
O=C1OCCC1Sc1nc2ccccc2n1Cc1ccccc1 (stereo not given)	-2%	-3	2.5	14	24
Cn1c(=Nc2ccccc2)sc2ccccc21	7%	-1	10	6	-9
CCOc1ccc(NS(=O)(=O)c2ccc(NS(=O)(=O)c3ccc(SC)cc3)cc2)cc1	0%	13	2.9	-38	11
O=S(Cc1cc(Oc2ccccc2)nc(-c2ccccc2)n1)c1ccccc1 (stereo not given)	21%	97	9.5	-4	-24
Cn1c(NC(=O)/C=C/c2ccco2)cc(=O)n(C)c1=O	0%	-5	-3.4	0	-29
CC1=CC(=O)C=C(C)C1=NOc1ccc([N+](=O)[O-])cc1	u	85	17	5	x
Cc1cccc2cc(/C=N/NC(=O)CN3CCCCC3)c(Cl)nc12	-5%	-9	0.1	-3	x
CCOC(=O)C1CCN(C(=O)c2cn(C)c(=O)c3cc(OC)c(OC)cc23)CC1	-3%	-10	4.5	3	-27	Arbovirus inh repeat=-4
COc1ccccc1/C=N/NC(=O)C(=O)N1CCN(c2ccccc2OC)CC1	3%	-1	-7.5	5	-28
CC1Cc2ccccc2N1Cc1nc2cc(C(F)(F)F)ccc2c(=O)[nH]1 (stereo not given)	-7%	-3	0.6	13	-17
COc1ccc(OCCNC2CCCC2)cc1	2%	-2	-0.7	5	-26
CCCn1c(=O)c2c(C(=O)OCC)cc(-c3ccco3)nc2n(CCC)c1=O	x	x	-0.1	-13	-15

Reprinted at random: 4 compounds from above
SMILES	Mtb H37Rv	Mtb betalactam	RecA intein inh	Arbovirus inh	YopH inh	others
Cc1cnc(C(=O)OCC(=O)c2ccc(-c3ccccc3)cc2)cn1	x	-12	-2.3	x	x
O=C(Cc1cccc2ccccc12)N1CC[C@@]2(O)CCCC[C@H]2C1	0%	4	-0.1	x	x
Cc1nc2c(Br)c3nc(C(F)(F)F)[nH]c3c(Br)c2[nH]1	-5%	-5	4.4	5	-14
Cc1cc[n+](CC(=O)Nc2cc(C(F)(F)F)ccc2Cl)cc1	-2%	-9	2.7	-1	-2

The list continues:
SMILES	Mtb H37Rv	Mtb betalactam	RecA intein inh	Arbovirus inh	YopH inh	others
CCC1CCCCN1S(=O)(=O)c1ccc(NC(=O)CSc2ncccc2C(=O)O)cc1 (stereo not given)	-3%	-1	4.6	5	-34
O=C(NCc1ccco1)C(=O)N1CCCC1	-14%	3	3.4	10	x
Cc1ccc(NC(=O)CN2C(=O)CCSc3ccc(S(=O)(=O)N4CCCC4)cc32)cc1C	x	6	-0.5	x	x
COc1ccc(N(CC(=O)NCc2cccnc2)S(=O)(=O)c2c(C)nn(C)c2C)cc1	-8%	-4	x	-1	-27	Arbovirus inh repeat=1
CN(C(=O)CSc1nc2ccccc2n1CCc1ccccc1)C1CCS(=O)(=O)C1 (stereo not given)	-5%	6	-0.6	1	-30
CCOC(=O)N1CCC(N2C(=O)c3ccccc3C2Nc2ccccc2C)CC1 (stereo not given)	5%	-1	2.3	2	-27	Arbovirus inh repeat=0
COc1ccccc1NC(=O)c1cc(C(=O)Nc2ccccc2OC)cc(N2C(=O)CCC2=O)c1	4%	8	-1.0	-7	-27
Cc1ccccc1OCCCCn1c(CO)nc2ccccc21	x	23	4.2	8	x
COc1ccc(NC(=O)c2cc(CC(C)C)nc3ccccc23)cc1	x	10	2.3	x	x
Cc1ccccc1N(CC(=O)NCc1ccc2c(c1)OCO2)C(=O)CCC(=O)Nc1ccccn1	3%	1	0.7	4	-8
COc1ccccc1-c1nnc(SCC(=O)Nc2cc(C)on2)o1	10µM*	-1	-3.4	0	6
Cn1c(=O)n(Cc2ccccc2F)c(=O)c2c1nc1n2CCCN1CCc1ccccc1	-8%	-4	0.7	-3	-55
O=C1NC(=O)c2cc(NC(=O)C3CCCCC3)ccc21	-9%	0	-0.5	3	8
Cc1nn(C)cc1/C=N/NC(=O)Cn1nnc(N)n1	-9%	-2	-0.9	x	x
CN1CCN(C(=O)CCN2C(=O)S/C(=C/c3ccc(Cl)cc3)C2=O)CC1	-5%	0	5.0	4	x
CCC(=O)c1cn(CC(=O)Nc2ccc(C)cc2C)c2ccccc12	x	-1	-1.4	x	x
CSc1nc2sc3c(c2c(=O)n1C)CCC3	x	-1	-0.7	x	x
O=C(N/N=C1\SCC(=O)N1CCc1ccccc1)c1cccs1	-5%	2	-0.1	-6	x
Nc1cc(=O)[nH]c(SCC(=O)Nc2cc(Cl)cc(Cl)c2)n1	-12%	-14	0.1	0	-42
Cc1ccc(-n2c(CNc3ccc(F)cc3)nnc2SCC(=O)NCc2ccco2)cc1	-4%	-3	5.7	-10	-10
O=[N+]([O-])c1ccc(CS(=O)(=O)c2ccc(Cl)cc2)cc1	x	6	0.6	x	x
COCCNC(=O)/C(C#N)=C/c1c(N2CC(C)OC(C)C2)nc2ccccn2c1=O (stereo not given)	2%	3	-262	-1	-6
O=c1[nH]nc(CNc2ccc(OC(F)(F)F)cc2)c2ccccc12	10%	38	3.0	13	x
CCCCn1c(N)c(N(Cc2ccccc2OC)C(=O)C2=COCCO2)c(=O)[nH]c1=O	x	-7	0.1	x	x
Cc1nnc(NC(=O)NCN2C(=O)C3C4C=CC(C4)C3C2=O)s1 (stereo not given)	-9%	-6	-1.1	3	-27
CCOC(=O)c1cn2nc(N3CCCCC3)ccc2n1	-6%	45	0.6	x	x
Clc1ccc(-c2nnc3c4ccccc4nc(N4CCOCC4)n23)cc1Cl	x	19	3.2	-11	-27
CC(=O)Nc1ccc(NC(=O)C(C)OC(=O)CNS(=O)(=O)/C=C/c2ccc(C)cc2)cc1 (stereo not given)	x	-4	-8.9	x	x
CCCn1nnc(NC(=O)COc2ccc(Cl)cc2)n1	49%	96	-1.0	2	4
CCc1nnc(NC(=O)c2ccc(S(=O)(=O)N3CCCC3)cc2)s1	x	-5	-1.5	x	x
CC(CCc1ccccc1)NC(=O)COC(=O)CC1CC2CCC1C2 (stereo not given)	-8%	-1	-1.0	5	-16
COc1ccc(-c2nnnn2C(C)C)cc1	-8%	3	-4.3	x	x
Cn1cc(C(=O)NCc2cccnc2)c(=O)c2cc(S(=O)(=O)N3CCCCCC3)ccc21	4%	-1	-0.6	-3	x
COC(=O)/C(=C\c1ccc([N+](=O)[O-])o1)NC(=O)c1ccccc1	31%	99	-18	-7	-4
CCOC(=O)c1c(NC(=O)Cn2nc([N+](=O)[O-])c(Br)c2C)sc2c1CCC(C)C2 (stereo not given)	-8%	-10	-1.3	-23	-28
CC1(OC(=O)C2CCCC2)C(=O)C=C2C=C(C3CC3)OC=C2C1=O (stereo not given)	-5%	0	-4.5	x	x
CCOc1ccc(/C=C/C(=O)Nc2ccc3[nH]c(=O)[nH]c3c2)cc1	2%	6	-5.8	-21	-14

Source: PubChem BioAssay
